Screening results (PubChem BioAssay)
VDR inhibitor: blocks the human vitamin D receptor | P11473 | hit rate 0.93% among 400,000 | VDR-SRC2-3 peptide fluorescence polarization, 2 h | Potency, µM, for the others: max response, negative = inhibition, usual class: inhibitors; active = well fitted inhibition curve with a large enough effect; inconclusive = small, poorly fitted or top-dose-only effect, or another doubt; inactive = no such curve, though single readings can be large or run the other way; note: series mostly up to about 120 µM
Target sequence (P11473 whole entry, looked up): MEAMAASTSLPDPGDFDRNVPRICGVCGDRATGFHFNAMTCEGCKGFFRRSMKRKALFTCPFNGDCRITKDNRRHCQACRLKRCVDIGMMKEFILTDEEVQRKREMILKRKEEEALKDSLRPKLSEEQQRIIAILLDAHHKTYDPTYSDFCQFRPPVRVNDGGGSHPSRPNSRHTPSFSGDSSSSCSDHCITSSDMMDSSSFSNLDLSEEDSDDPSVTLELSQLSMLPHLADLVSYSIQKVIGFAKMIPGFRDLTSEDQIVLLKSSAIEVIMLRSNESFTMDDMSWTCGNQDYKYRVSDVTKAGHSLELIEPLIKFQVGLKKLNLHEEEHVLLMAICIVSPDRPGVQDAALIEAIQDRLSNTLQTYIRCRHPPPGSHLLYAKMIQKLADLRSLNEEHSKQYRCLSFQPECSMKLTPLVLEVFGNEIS
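Reagent solutions, kept cold and dark, are dispensed first; compounds are then pinned in at 23 nl, plates briefly spun, and incubated 2 h at ambient temperature. Inhibition of VDR–SRC2-3 peptide binding is read by fluorescence polarization.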
* marks the source's active call; other numbers are inactive results; ? = inconclusive; & = joins results of further samples; [ ] = dose if it differs, or a comment. % is set by controls: 0 for no effect and ±100 for the full control effect; potency is the fitted concentration of half-maximal effect. Some of the compounds tested (hit frequency here may not be typical).

molecule	VDR inhibitor
CCOC(=O)c1cc2c(=O)n3ccccc3nc2n(Cc2ccco2)c1=NC(=O)c1cc(C)cc(C)c1	-19%
O=C(CCn1c(=O)c2ccccc2n(Cc2ccccc2)c1=O)NC1CCN(Cc2ccccc2)CC1	-14%
O=C(CCCC(=O)Nc1ccc(Br)cc1)N/N=C/c1ccccc1	0%
CCOC(=O)c1ccccc1NC(=O)[C@@H]1CCCN1C(=O)OC(C)(C)C	0%
CCOc1ccc(NC(=NCc2ccc3c(c2)OCO3)SC2CC(=O)N(c3ccccc3)C2=O)cc1 (centres undefined)	-2%
Cc1cc(Cl)cc(Cl)c1OCCCCN(C)C	3%
CC1(C)Cc2c(C#N)c(N)sc(=S)c2CS1	?
CC12CC(c3ccccc3O1)N(C(=O)c1ccco1)C(=S)N2c1ccc(F)cc1 (centres undefined)	-8%
O=C(CCNC(=O)c1ccc([N+](=O)[O-])cc1)NNC(=O)c1ccncc1	?
CCCc1nn(C)c(C(=O)Nc2ccc(Cl)cc2)c1Cl	-11%
CCc1ccc(C(=O)c2cn(CC(=O)Nc3cc(OC)ccc3OC)c3ccc(C)cc3c2=O)cc1	0%
CC(C)c1cc(C(=O)NC2CCCCC2)no1	-6%

The last 2 records of the part before are carried over, then new ones follow:
molecule	VDR inhibitor
CCc1ccc(C(=O)c2cn(CC(=O)Nc3cc(OC)ccc3OC)c3ccc(C)cc3c2=O)cc1	0%
CC(C)c1cc(C(=O)NC2CCCCC2)no1	-6%
NC(=S)Nc1ccc(C(F)(F)F)cc1Cl	-6%
CC(C)(C)c1cc(C(=S)N2CCN(CCO)CC2)cc(C(C)(C)C)c1O	40µM*
O=C(CCCN=C1NS(=O)(=O)c2ccccc21)OCC(=O)c1ccc(F)c(F)c1	3%
COc1ccc(-c2cc(C(F)(F)F)n3nc(C(=O)O)nc3n2)cc1	-7%
COc1ccc(CNC(=O)c2ccc(-c3ccccc3)cc2)cc1OC	5%
Cc1cccc(C)c1NC(=O)CN(C)C(=O)CCC(=O)N1CCOCC1	-3%
COc1cc(C(=O)NC2CCCC(C)C2C)ccc1OCC(=O)N1CCOCC1 (centres undefined)	-2%
COc1ccc(C)cc1NC(=O)Nc1ccccc1	1%
Cc1ccc(NC(=O)C(C)Sc2nnc(C)n2C)cc1 (centres undefined)	0%
COc1cc(C)c(Cl)cc1S(=O)(=O)N1CCSC1	?
COc1ccc(Cc2nnc(SCc3nc4ccccc4c(=O)[nH]3)n2C)cc1	-4%
CN(CCO)c1nc(NCc2ccccc2)c2cnn(C)c2n1	-8%

Remaining list, next part.
molecule	VDR inhibitor
Cc1ccccc1C(=O)c1cccn1CC(=O)NCc1ccccc1	-3%&18%
Cc1cc(S(=O)(=O)Nc2ccc(-c3ccc(N4CCCCCC4)nn3)cc2)c(C)cc1Cl	19%
COc1ccc(S(=O)(=O)NCCOc2ccccc2)cc1C	1%
COc1ccc(-c2nn(-c3ccccc3)cc2/C=C/C(=O)OCC(=O)Nc2ccc(C#N)cc2)cc1	3%
CCCCOc1ccc(-c2cn3ccccc3n2)cc1[N+](=O)[O-]	-7%
Nc1ncnc2nc(SCC(=O)N3CCN(c4ccccc4)CC3)[nH]c12	-4%
CCOC(=O)c1scc(-c2ccc(C)cc2)c1S(=O)(=O)Nc1ccc(OC)c(Cl)c1	12%
O=C(Nc1ccccc1)c1ccc(C(=O)Nc2ccccc2)nc1	-11%
Cc1ccc(-c2cc(C(=O)N/N=C/C=C/c3ccco3)c3ccccc3n2)cc1C	-11%
CN(CC(=O)Nc1ccccc1Cl)C(=O)COC(=O)c1ccc(-c2ccc(O)cc2)cc1	6%
COc1ccc(C2(c3ccc(OC)cc3)NC(=O)N(CC(=O)NC3(C#N)CCCC3)C2=O)cc1	-6%
COc1ccccc1NC(=O)Nc1nnc(CC(=O)Nc2cccc(C)c2)s1	-5%

Next section
molecule	VDR inhibitor
O=C(c1ccc([N+](=O)[O-])cc1)N1CCN(C(=O)C2CCCCC2)CC1	12%
NS(=O)(=O)c1ccc(NC(=S)Nc2nn(Cc3ccc(Cl)cc3Cl)cc2Cl)cc1	-30%
CCC1(C)Cc2ccccc2-c2nc(SC)[nH]c(=O)c21 (centres undefined)	18%
CC(C)(C)NC(=O)[C@@H]1CC[C@@H]2[C@@H]3CC[C@@H]4NC(=O)C=C[C@@]4(C)[C@H]3CC[C@]21C	16%
CCOC(=O)c1c(NC(=O)c2cc(-c3ccc(Cl)cc3)on2)sc2c1CCCC2	?
Cc1c(Nc2ccc(C=O)cc2)c(=O)n(-c2ccccc2)n1C	-13%
Cc1cc2oc(C(=O)Nc3nc(-c4ccccc4)ns3)c(C)c2cc1Cl	12%
Cn1c(NNC(=O)C2CCCCC2)cc(=O)n(C)c1=O	?
Cc1ccc(N2C(=O)C(Cc3ccc(O)cc3)NC2=S)cc1C (centres undefined)	-20%
Cc1ccc(S(=O)(=O)N2CCN(CC(=O)N(CC(C)C)c3c(N)n(CC(C)C)c(=O)[nH]c3=O)CC2)c(C)c1	2%
CN(C)C(=O)c1cc(C(=O)c2ccc(C(F)(F)F)cc2)c[nH]1	-24%
COc1ccc(CCCC(=O)NCCc2ccccc2)c(C)c1	13%

Remaining list, next part:
molecule	VDR inhibitor
CCOc1ccc(/C=N/NC(=O)Cc2csc(Nc3cccc(C(F)(F)F)c3)n2)cc1	9%
Cc1cccc(Nc2nnc(SCC(=O)Nc3ccccc3[N+](=O)[O-])s2)c1	-11%
C=CC[n+]1c(-c2ccc(OC)c(OC)c2)csc1NNC(=O)Nc1ccccc1	8%
O=C1CSC(c2ccccc2)N1CCc1ccccc1 (centres undefined)	-21%
Cc1ccccc1-c1nccc(NCCN2CCOCC2)n1	?
O=C(CN1CCCC1)NC(=O)NC1CCCC1	-24%
Cc1ccc(N(CC(=O)Nc2cc(C)cc(C)c2)S(=O)(=O)c2c(C)noc2C)cc1	-11%
O=C(O)c1ccc(NC(=O)c2cn(-c3ccccc3)nc2-c2cccc(Cl)c2)cc1	4%
COc1ccc(N2CCN(C(=O)Nc3cn(CC(C)C)c(=O)c4ccccc34)CC2)cc1	17%
Cc1ccc(SCC(=O)Nc2ccc3c(c2)C(=O)NC3=O)cc1	-7%
CCOC(=O)C1CCN(C(=O)Cc2cccc3ccccc23)CC1	9%
CCCCn1c(N)c(N(CCC(C)C)C(=O)c2cccc(-n3cnnn3)c2)c(=O)[nH]c1=O	18%

Following part
molecule	VDR inhibitor
O=C(Nc1ccc(O)c2c(=O)cc(-c3ccccc3Cl)oc12)c1ccccc1Cl	-5%&5%
Cc1ccc(C(=O)NC2CCN(CC(=O)Nc3ccccc3Cl)CC2)cc1	-1%
COc1cccc(NC(=O)CCc2nc(-c3cccs3)no2)c1	-2%&1%
CC1CN(C(=O)c2ccc(NS(=O)(=O)c3cccc(Cl)c3)cc2)CC(C)O1 (centres undefined)	8%
CCCCC(=O)N=c1sc2cc([N+](=O)[O-])ccc2n1C	5%
CC1(c2ccc3c(c2)OCCCO3)NC(=O)N(CC(=O)Nc2cccc(C#N)c2)C1=O (centres undefined)	0%
COc1ccc(C(C(=O)NC2CCCC2)N(Cc2cccs2)C(=O)c2ccn[nH]2)cc1OC (centres undefined)	8%
CCN1C(=O)c2cccc3c(NC(=O)c4ccc(OC)c(OC)c4)ccc1c23	-4%
COc1ccc(C(=O)/C=C/C(=O)N(CC(=O)NC2CCCCC2)Cc2cccs2)c(O)c1	45µM*
O=C(Cc1cccs1)Nn1c(Cc2cccs2)nc2ccccc2c1=O	3%
C=CCn1c(NCCc2ccccc2)nc2c1c(=O)n(C)c(=O)n2C	7%
COc1ccc(OCc2cc(C(=O)N(C)Cc3cnccn3)no2)c(Cl)c1	13%

New compounds follow.
molecule	VDR inhibitor
CC(Sc1nnc(C(F)(F)F)n1C)C(=O)Nc1ccc(N2CCOCC2)cc1 (centres undefined)	11%
C=CCn1c(NC(=O)c2ccccc2)nc2ccccc21	-3%
COc1cc(/C=N/NC(=O)c2ccccc2Cl)ccc1Oc1ccc([N+](=O)[O-])cn1	-11%
CCOC(=O)Cc1ccc(NC(=O)N2CC(C)Oc3ccc(Cl)cc32)cc1 (centres undefined)	5%
NCC(=O)CCC(=O)O	-14%&7%
ClC(Cl)c1nnc(-c2ccccc2)c(-c2c[nH]c3ccccc23)n1	-5%
c1ccc(CC2CCN(Cc3nc(-c4ccccc4)no3)CC2)cc1	-1%
Cc1cccc(OCc2nc3c4c(ncn3n2)-c2ccccc2CC42CCCC2)c1	-8%
COc1ccc(CN2CCN(C)CC2)cc1OCc1ccccc1	-3%
COc1ccc(CCNC(=O)c2ccc3c(c2)c(C)c(C)n3Cc2ccccc2)c(OC)c1OC	16%
O=c1[nH]c(-c2ccccc2)c(-c2ccccc2)o1	0%
CC1Cc2ccccc2N1CC(=O)Nc1ccc(S(N)(=O)=O)cc1 (centres undefined)	52%[activator]

4 compounds already listed, sorted by heavy-atom count, ascending.
molecule	VDR inhibitor
c1ccc(CC2CCN(Cc3nc(-c4ccccc4)no3)CC2)cc1	-1%
CCOC(=O)Cc1ccc(NC(=O)N2CC(C)Oc3ccc(Cl)cc32)cc1 (centres undefined)	5%
COc1cc(/C=N/NC(=O)c2ccccc2Cl)ccc1Oc1ccc([N+](=O)[O-])cn1	-11%
COc1ccc(CCNC(=O)c2ccc3c(c2)c(C)c(C)n3Cc2ccccc2)c(OC)c1OC	16%

(next part)
molecule	VDR inhibitor
CCOc1ccc2nc(SCC(=O)N3c4ccccc4Sc4ccccc43)c(C#N)cc2c1	2%
Cc1ccc(NC(=O)c2ccn(C(=O)Nc3ccccc3)n2)c(C)c1	8%
O=C1CC(c2ccccc2Cl)=NN(c2ncnc3ccccc23)C1=O	-18%
Cn1nnnc1SCC(=O)Nc1cccc(S(=O)(=O)N2CCCCC2)c1	0%
COc1cc(OC)cc(C(=O)N[C@H](C(=O)OCC(=O)Nc2cccnc2Cl)C(C)C)c1	10%
Cc1ccc(CS(=O)Cc2ccc(C(=O)NC3CCC(C)CC3)o2)cc1 (centres undefined)	6%
Cc1ccc2c(CNCCc3ccco3)c(C(=O)O)n(Cc3ccc(F)cc3)c2c1	4%
Cc1n[nH]c(C)c1S(=O)(=O)N1CCCC(C(=O)O)C1 (centres undefined)	0%
Cc1ccc(S(=O)(=O)Nc2ccc3c(c2)C(=O)N([C@H](C)CO)C[C@@H](C)[C@@H](CN(C)C(=O)Nc2cccc4ccccc24)O3)cc1	19%
O=C(O)CC1C(=O)OCN1C(=O)OCc1ccccc1 (centres undefined)	-12%
CC(C)NC[C@@H](O)COc1ccc(COCCOC(C)C)cc1	5%&-18%
CCC(=O)Nc1nonc1-c1nc2ccccc2n1CC(C)C	-19%

Three of the entries above in order of their number in VDR inhibitor, rising:
| mol | VDR inhibitor |
| --- | --- |
| O=C1CC(c2ccccc2Cl)=NN(c2ncnc3ccccc23)C1=O | -18% |
| Cn1nnnc1SCC(=O)Nc1cccc(S(=O)(=O)N2CCCCC2)c1 | 0% |
| CCOc1ccc2nc(SCC(=O)N3c4ccccc4Sc4ccccc43)c(C#N)cc2c1 | 2% |

The list goes on:
molecule	VDR inhibitor
Cc1ccc(CN2C(=O)CSC(C)C2=O)cc1 (centres undefined)	6%
Cc1ccc(Cl)cc1N1CCN(C(=O)CSc2nnc3n2C(C)(C)Cc2ccccc2-3)CC1	2%
CN(C)CCNC(=O)c1coc(=O)c(Br)c1	27%
Cc1cccc(C2=NN(c3ccccc3)[C@@H](C(=O)N3CCOC3=O)[C@@H]2c2ccc(F)cc2)c1	-14%&-7%
